PKD1 inh – PKD1 (human) kinase inhibition | actives 0.056% (n = 200,000) | inhibition, %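 (about 10 µM by stock and volumes)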 | AID 797 | PKD1 kinase fluorescence polarization assay;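 active = inhibition of 50% or more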;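 also: controls were vehicle for no effect and a reference inhibitor for full effect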
Target sequence (Q15139 whole entry, looked up): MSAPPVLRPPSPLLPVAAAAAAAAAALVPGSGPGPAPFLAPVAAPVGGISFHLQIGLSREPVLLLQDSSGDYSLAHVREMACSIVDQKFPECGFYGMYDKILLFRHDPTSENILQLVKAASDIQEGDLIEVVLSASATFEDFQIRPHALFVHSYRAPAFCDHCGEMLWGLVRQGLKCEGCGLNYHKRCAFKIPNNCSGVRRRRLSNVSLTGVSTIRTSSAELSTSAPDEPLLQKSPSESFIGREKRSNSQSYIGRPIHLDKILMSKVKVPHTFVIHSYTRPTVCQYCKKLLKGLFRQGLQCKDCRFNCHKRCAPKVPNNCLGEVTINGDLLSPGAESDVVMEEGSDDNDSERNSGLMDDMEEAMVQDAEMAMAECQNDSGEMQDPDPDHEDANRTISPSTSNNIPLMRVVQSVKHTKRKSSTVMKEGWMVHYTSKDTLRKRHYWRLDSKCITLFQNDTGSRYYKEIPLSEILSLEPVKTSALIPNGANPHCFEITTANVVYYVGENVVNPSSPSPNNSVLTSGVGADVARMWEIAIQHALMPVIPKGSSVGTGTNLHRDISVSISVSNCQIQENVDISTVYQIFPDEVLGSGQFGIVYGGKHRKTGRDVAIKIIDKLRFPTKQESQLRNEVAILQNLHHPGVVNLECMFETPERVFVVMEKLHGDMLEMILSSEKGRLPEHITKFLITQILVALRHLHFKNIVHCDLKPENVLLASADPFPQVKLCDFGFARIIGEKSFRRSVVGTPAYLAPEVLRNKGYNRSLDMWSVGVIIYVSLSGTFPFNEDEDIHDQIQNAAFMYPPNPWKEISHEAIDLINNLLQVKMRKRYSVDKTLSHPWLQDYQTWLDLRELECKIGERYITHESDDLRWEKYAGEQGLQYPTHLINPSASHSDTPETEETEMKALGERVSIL
HSV augment – HSV replication enhancement; HSV replication augmentation in cells, fold increase; maximum fold increase; actives 0.005% (n = 220,000);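 active = peak rise of 1.5-fold or more in the series; tested in PC3 cells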;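 also: first round at 10 µM; read as green reporter fluorescence; hits show the peak of a series up to 25 µM; 1 = signal of infected wells without compound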
RGS16-Gao HTS – modulates binding between human RGS16 and Galphao | bead-based flow cytometry RGS16-Galphao binding, fluorescence; actives lie on both sides | binding response (% of control), % at 10 µM | actives 0.38% (n = 220,000) | AID 1441;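 active = below 25% or above 175%, edge rows of some plates excepted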;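 also: Galphao activated by GDP with aluminum fluoride before binding; 100% = wells without compound and 0% = beads without RGS; some results beyond the cut were filed as inactive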
INS promoter inh – TRM-6 insulin promoter activity inhibition; TRM-6 cells (human fetal islet line), insulin promoter-eGFP reporter, imaging; reporter expression induced with tamoxifen; inhibition, % at 2 µM; actives 0.9% (n = 130,000); AID 1273;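 active = inhibition above the mean plus 3 SD, with well images judged a real hit on visual review, cut at about 60% in these data, passing the limit was not always enough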
GALR2 agonist – GALR2 (human) receptor agonism | O43603 | GALR2-expressing cells, agonist activation read-out | activation, %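 (tested at 5 µM)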 | actives 0.48% (n = 140,000);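 active = above mean plus 3 SD of all compounds, about 5% in these data, not always enough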;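 also: 0% = vehicle buffer wells and 100% = reference agonist at full effect; tested in CHO reporter cells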
INS promoter inh cell count – recorded beside INS promoter inh, whose call it bears; normalized cell count, %; measured here: cell count, toxicity; reference of the scale not given here;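 cells exposed to compound for 48 h; stained nuclei by imaging scaled within each plate; lower means fewer cells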
HSV augment primary fold – further read-out of HSV augment, marked with its call; fold increase; compound at 10 µM; measured here: primary screen fold increase 10 uM; tested in PC3 cells;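 GFP signal in the first replicate; 1 = infected wells without compound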
* hit, by the source's call; i = inactive; x = no result given; [ ] = remark or other dose.

Start of the data: the first 11 compounds as a preview:
SMILES	PKD1 inh	HSV augment	HSV augment primary fold	RGS16-Gao HTS	INS promoter inh	INS promoter inh cell count	GALR2 agonist
Cc1ccc(S(=O)(=O)CNC(=S)c2cccc(C)c2)cc1	-3	i	0.98	113	-46	124	-3.9
CCN(CC)CCCC(C)NC(=O)c1ccc(C(F)(F)F)cc1 (centres undefined)	-4	i	0.98	99	x	x	x
CCc1nnc(NC(=O)CCn2cnc3ccccc3c2=O)s1	-6	i	0.98	98	x	x	x
O=C(CSCc1c(Cl)cccc1Cl)NCc1ccccn1	-6	i	0.92	109	x	x	x
Cc1ccc(-c2nnc(N3CCN(C(=O)CSc4ncn[nH]4)CC3)c3ccccc23)cc1	-20	i	0.76	105	62	192	-1.1
CCN1CCCC1CNCc1ccc(OCc2ccc(Cl)nc2)c(OC)c1 (centres undefined)	x	i	0.87	98	x	x	x
Cn1c(N)c(C(=O)CN2CCc3ccccc3C2)c(=O)n(C)c1=O	-1	i	0.94	112	25	188	x
Nc1nc(CN2CCN(c3ccccn3)CC2)nc(Nc2ccc(Cl)cc2)n1	1	i	0.89	103	0	112	-1.2
CSC1=C(C#N)C(c2ccccc2)C(C(C)=O)=C(C)N1 (centres undefined)	-3	i	1.1	101	20	123	x
O=C(CSc1ccc2ccccc2n1)c1ccccc1	x	i	1.1	98	x	x	x
Nc1c(S(=O)(=O)c2ccccc2)c2nc3ccccc3nc2n1/N=C/c1cccc(O)c1	-8	i	0.57	100	x	x	1.0

Main list, repeating the preview:
SMILES	PKD1 inh	HSV augment	HSV augment primary fold	RGS16-Gao HTS	INS promoter inh	INS promoter inh cell count	GALR2 agonist
Cc1ccc(S(=O)(=O)CNC(=S)c2cccc(C)c2)cc1	-3	i	0.98	113	-46	124	-3.9
CCN(CC)CCCC(C)NC(=O)c1ccc(C(F)(F)F)cc1 (centres undefined)	-4	i	0.98	99	x	x	x
CCc1nnc(NC(=O)CCn2cnc3ccccc3c2=O)s1	-6	i	0.98	98	x	x	x
O=C(CSCc1c(Cl)cccc1Cl)NCc1ccccn1	-6	i	0.92	109	x	x	x
Cc1ccc(-c2nnc(N3CCN(C(=O)CSc4ncn[nH]4)CC3)c3ccccc23)cc1	-20	i	0.76	105	62	192	-1.1
CCN1CCCC1CNCc1ccc(OCc2ccc(Cl)nc2)c(OC)c1 (centres undefined)	x	i	0.87	98	x	x	x
Cn1c(N)c(C(=O)CN2CCc3ccccc3C2)c(=O)n(C)c1=O	-1	i	0.94	112	25	188	x
Nc1nc(CN2CCN(c3ccccn3)CC2)nc(Nc2ccc(Cl)cc2)n1	1	i	0.89	103	0	112	-1.2
CSC1=C(C#N)C(c2ccccc2)C(C(C)=O)=C(C)N1 (centres undefined)	-3	i	1.1	101	20	123	x
O=C(CSc1ccc2ccccc2n1)c1ccccc1	x	i	1.1	98	x	x	x
Nc1c(S(=O)(=O)c2ccccc2)c2nc3ccccc3nc2n1/N=C/c1cccc(O)c1	-8	i	0.57	100	x	x	1.0
Clc1ccc(/C=N/Nc2nn[nH]n2)cc1	-2	i	1.1	95	-281	85	-3.0
CC(C)Cc1cc(CN2CCC(CO)(Cc3ccccc3)CC2)[nH]n1	x	i	0.98	103	x	x	x
CC1NC(=O)NC1CCCCCC(=O)Nc1ccc(F)c(Cl)c1 (centres undefined)	-7	i	0.93	128	x	x	x
CCN(CC)CCCN1C(=O)C(O)=C(C(=O)c2sc(C)nc2C)C1c1ccco1 (centres undefined)	15	i	0.95	157	43	167	-1.3
Cc1ccccc1Cn1ccc(=NCc2ccccc2)cc1	-5	i	1	109	-40	86	0.0
CCSCc1nnc(SCC(=O)Nc2nc3ccccc3s2)n1C	-3	i	0.98	102	52	131	-0.5
c1csc(-c2nnc(Cc3cccc4ccccc34)o2)c1	-6	i	0.94	105	10	91	-0.8
CCOC(=O)N1CCN(C(=O)c2ccccc2N(C)S(C)(=O)=O)CC1	2	i	1	117	-5	78	-0.3
COC(=O)C1(C)Nc2ccccc2C(=O)N1c1ccccc1C (centres undefined)	10	i	0.9	106	x	x	-1.4
Cc1ccc(NC(=O)c2ccc(Br)o2)cc1S(=O)(=O)N(C)C	0	i	0.92	99	-85	95	x
Cc1ccc2nc(/C(C#N)=C\c3ccc(Oc4ccc([N+](=O)[O-])cn4)cc3)[nH]c2c1	-3	i	1	108	4	124	1.7
CC(=O)c1c(C)n([O-])c2ccccc2[n+]1=O	-12	i	0.88	106	-17	92	-1.5
Cc1ccc(N(CC(O)COCc2ccco2)S(=O)(=O)c2ccc(C)cc2)cc1 (centres undefined)	-5	i	1.1	140	x	x	-0.9
CC(=O)c1ccc(-n2cc(-c3ccc(C(C)(C)C)cc3)[n+]3c2SCCC3)cc1	-3	i	0.76	100	x	x	x

(listing goes on)
SMILES	PKD1 inh	HSV augment	HSV augment primary fold	RGS16-Gao HTS	INS promoter inh	INS promoter inh cell count	GALR2 agonist
COc1ccc(-c2cc(CS(=O)(=O)c3ccccc3)on2)cc1	-7	i	1	99	-76	45	x
O=C(O)c1ccc(/C=N/N2CCN(Cc3cccc4ccccc34)CC2)cc1	3	i	1	103	33	105	x
CCCn1nc([N+](=O)[O-])c(C(C#N)c2nc3ccccc3o2)c(Cl)c1=O (centres undefined)	-2	i	0.91	106	x	x	-1.1
O=[N+]([O-])c1ccc2c(c1)C(O)n1nc(-c3ccc(Cl)cc3Cl)nc1S2 (centres undefined)	-2	i	0.89	90	36	127	-2.2
Cc1ccccc1OCc1nnc(SCC(=O)Nc2ccc3nc(SCC(=O)NC(C)(C)C)sc3c2)n1C	-3	i	1.2	93	-20	110	-2.2
CCOc1ccc(NC(=O)CN(C)c2ccc(S(=O)(=O)N3CCOCC3)cn2)cc1OCC	-5	i	0.91	100	-36	192	-0.3
CCN1CCCC1CNc1ncnc2c1[nH]c1ccc(F)cc12 (centres undefined)	7	i	1	99	44	179	1.6
O=C(COC(=O)Cn1cnc2ccccc21)NCCC1=CCCCC1	8	i	0.8	101	11	77	-1.5
CC(C)CNC(=O)COc1ccc2c3c(c(=O)oc2c1)CCC3	8	i	1.1	95	x	x	-1.3
Cc1cc(=S)cc(C)n1CCO	-3	i	1	0	-57	73	-2.1
CCCC[C@@H]1CNC(=O)C(=O)N1CCCc1cc(OC)c(OC)c(OC)c1	x	i	0.85	101	x	x	x
CN(CCC(=O)Nc1ccc2c(c1)OCO2)Cc1ccccc1	0	i	0.93	98	x	x	-0.8
CCCCOc1ccc(/C=C/C(=O)NCCc2nc3ccccc3[nH]2)cc1	10	i	1.1	104	16	89	0.2
CC(c1nccs1)N(C)C(=O)CCc1nnc(CCc2ccccc2)o1 (centres undefined)	-8	i	1	102	x	x	x
Cc1nnc(SCCN2CCOCC2)c2nn(-c3ccccc3F)c(C)c12	-16	i	0.91	180*[activator]	-8	65	-2.5
CCOc1ccccc1NC(=O)NC1CCN(CC(=O)Nc2ccc3c(c2)OCCO3)CC1	-6	i	0.74	86	-8	121	0.7
CCCCCCOc1ccc(N2C(=O)CC(N3CCN(CCN=CC4C(=O)CC(C)(C)CC4=O)CC3)C2=O)cc1 (centres undefined)	0	i	0.92	103	x	x	x
CN1/C(=C\C(=O)c2cccnc2)Sc2ccccc21	-6	i	1	103	x	x	x
CC(=O)NC(NC(=S)N1CCCCCC1)C(Cl)(Cl)Cl (centres undefined)	0	i	0.97	101	x	x	x
Cc1ccc(N=Cc2ccc(O)cc2O)cc1F	-1	i	1.2	114	-12	207	-2.2
COCCCNC(=O)CSC1=Nc2ccccc2C2=NC(Cc3c[nH]c4ccccc34)C(=O)N12 (centres undefined)	-13	x	x	108	-20	170	-1.9
Cc1ccc(C)c(CN2C(=O)C3CCCN3c3ccc(S(=O)(=O)N4CCOCC4)cc32)c1 (centres undefined)	-9	i	0.82	102	-3	125	-1.0
CNC(=O)NC(=S)NC(=O)c1ccccc1Cl	0	i	1.1	98	-11	136	x
CCN1/C(=C2\C(=O)N(C)C(=S)N2c2ccccc2)C=Cc2ccccc21	x	i	0.95	114	x	x	x
CCOc1ccc(C(=O)Nc2ccccc2CC)cc1[N+](=O)[O-]	7	i	0.95	100	53	69	-0.1

(listing goes on)
SMILES	PKD1 inh	HSV augment	HSV augment primary fold	RGS16-Gao HTS	INS promoter inh	INS promoter inh cell count	GALR2 agonist
NC(N)=N/N=C/c1ccc(OCc2ccccc2)cc1	-3	i	0.63	103	7	147	-0.4
Cc1ccc(C2c3c(oc4ccccc4c3=O)C(=O)N2CCCN2CCOCC2)o1 (centres undefined)	-5	i	0.96	103	-3	130	-4.5
Cc1ccc(S(=O)(=O)N(CC(=O)N/N=C/c2ccco2)Cc2ccccc2)cc1	10	i	1.2	102	41	114	-1.6
c1ccc2[nH]c(NC3=NCCC3)nc2c1	8	i	1.1	106	x	x	-2.0
O=C(c1cccnc1)N1CCC(Oc2ccc(C(=O)N3CCCCO3)cc2)CC1	-7	i	0.91	111	5	46	x
CCOC(=O)NC(=O)CSc1ccc(C)cc1C	-7	i	1.1	106	x	x	x
CC(=O)N1CCN2C(=O)C1CCCC(=O)c1cc(C3CCCCC3)ccc12 (centres undefined)	0	i	0.93	105	x	x	-0.9
COCCNc1c(-c2ccc(OC)c(OC)c2)nc2ccc(Cl)cn12	1	i	0.94	70	x	x	x
O=C(NCc1ccccc1)C(Cc1ccccc1)N1C(=O)C2C3CCC(C3)C2C1=O (centres undefined)	-8	i	0.85	114	-17	119	-2.4
COc1ccc(-c2nnc(SCC(=O)Nc3ccc(C)cc3)n2C)cc1	21	i	0.94	110	-44	129	-1.1
Cc1nonc1NC(=O)CSc1nc(C2CCCCC2)nc2ccccc12	-5	i	0.73	101	x	x	-2.3
Cc1ccc(OCc2ccc(C(=O)NN)o2)cc1C	x	i	1.1	101	x	x	x
Cc1ccc(CNC(=O)c2csc3c2CCCCC3)cc1	6	i	0.85	96	31	130	-1.3
CN1CCN(CCc2nc3cc(NC(=O)COc4ccccc4)ccc3n2C)CC1	2	x	x	122	-6	75	-1.5
O=[N+]([O-])c1cccnc1N1CCC(c2cc(-c3cccc(C(F)(F)F)c3)n[nH]2)CC1	6	i	1	98	-136	109	-2.6
OCC1CCCCN1C(=S)Nc1ccc(Cl)cc1Cl (centres undefined)	1	i	0.97	110	x	x	x
O=C(NCCCCNC(=O)c1ccc(Cl)s1)c1ccc(Cl)s1	-16	i	1.1	112	67	121	-2.5
COc1ccccc1NS(=O)(=O)c1cc(NC(=O)c2ccc3c(c2)OCCO3)ccc1C	-1	i	0.78	25	-44	61	-1.0
Cc1ccc(-c2ccc(C(=O)NCc3ccc(Cl)cc3)o2)c2ccccc12	-10	i	0.94	97	43	100	-2.6
Cc1ccc(S(=O)(=O)C2C(=O)N(C)C3(C)CC2c2ccccc2O3)cc1C (centres undefined)	-6	i	1.1	99	x	x	-0.1
CSc1nnc2c(n1)OC(C)N(C(=O)c1ccccc1)c1ccccc1-2 (centres undefined)	6	i	0.93	94	7	68	-2.8
COCCNC(=S)N1CCC(NC(=O)Nc2ccc(C)cc2)CC1	-7	i	0.96	101	x	x	x
CC1(C)CC(=O)C=C(Nc2ccc(C(=O)O)cc2)C1	-6	i	1.1	110	-26	63	-0.1
CCNC(=O)c1cc2c(=O)n3cccc(C)c3nc2n(Cc2ccc(C)cc2)c1=N	-3	i	0.7	130	-14	101	0.4
CC(C)c1ccc(NC(=S)NC2CCCCCC2)cc1	-5	i	0.8	103	x	x	x

(more compounds)
SMILES	PKD1 inh	HSV augment	HSV augment primary fold	RGS16-Gao HTS	INS promoter inh	INS promoter inh cell count	GALR2 agonist
Cc1ccccc1C(=O)c1cccn1CC(=O)NCc1ccc(Cl)cc1	-3	i	1.1	114	-173	95	x
COc1cccc(-c2nn(-c3ccccc3)cc2CO)c1	-7	x	x	113	56	160	-3.4
COc1ccc(NC(=O)C2CCCN(c3c4c(nc5ncnn35)CCC4)C2)cc1 (centres undefined)	1	i	0.9	104	x	x	0.4
CC1CCCCN1S(=O)(=O)c1ccc(NC(=O)c2cccc(-n3cnnn3)c2)cc1 (centres undefined)	5	i	0.72	103	-19	93	0.1
COc1ccc(/C=C2/SC(=O)N(CC(O)Cn3c4ccccc4c4ccccc43)C2=O)cc1 (centres undefined)	-4	i	0.94	111	18	87	-1.5
CCC1CCc2c(sc(NC(=O)c3cccnc3)c2C(N)=O)C1 (centres undefined)	-5	i	1	97	x	x	x
Cc1c(Br)c(C(F)(F)F)nn1CC(=O)NCc1ccccc1	1	i	0.95	203*[activator]	-55	99	-0.5
CCOc1ccccc1NC(=O)C(CC(C)C)NC(=O)C1CCCCC1 (centres undefined)	-8	i	1	234	-8	175	-2.6
CCC1C(=O)N=C(SCC(=O)NC2CCCCC2)NC1=O (centres undefined)	-3	i	0.9	102	x	x	x
O=C(c1ccc(Br)s1)N1CCCC1	-14	i	1.1	107	70*	72*	-1.0
O=C(C[n+]1ccccc1)N/N=C/c1ccc(O)cc1	-4	i	0.96	100	x	x	x

High-throughput results (PubChem BioAssay)
